miR-21 reporter = miR-21 reporter, rising signal; 340,000 tested, under 10 active; HeLa miR-21 FLuc reporter, luciferase, 48 h; Potency, µM (titrated, usually from 38.3 µM), for the others: at the top dose reporter change, positive = more light; AID 2288; active = well fitted rising curve with a large enough effect; inconclusive = small, poorly fitted or top-dose-only effect; inactive = no such curve, though single readings can be large or run the other way;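 note: % of control where 0% means no effect; miR-21 action dims this reporter so a rising signal means less miR-21 action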
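Luminescence from a firefly luciferase reporter carrying a miR-21 binding site downstream, stably expressed under a CMV promoter in HeLa cells that make miR-21 endogenously, reports miRNA modulation after 48 h compound exposure up to approximately 40uM final.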
Active calls of the source: *; ? = inconclusive; [ ] = dose if it differs, or a comment. This is a subset; count on the stated rates, not on these rows.

The opening 5 records (preview)
miR-21 reporter	Compound
-0.2%	COc1ccccc1C(=O)Nc1c(C(=O)NC(C)(C)C)oc2ccccc12
-0.5%	COCCn1c(C)cc(O)c(C(c2ccccc2OC)N2CCCCC2)c1=O (stereo not drawn)
-46.5%	CCOc1ccc(-c2cc(NC(=O)Nc3cccc(C(C)=O)c3)c(C(=O)OC)s2)cc1
0.2%	O=C(Nc1ccc(Cl)cc1Cl)c1cc(S(=O)(=O)N2CCc3ccccc32)ccc1F
19.7%	CC1Cc2cc(S(=O)(=O)CCC(=O)Nc3ccc(OC(F)(F)F)cc3)ccc2N1C(=O)C1CC1 (stereo not drawn)

Main list, repeating the preview:
miR-21 reporter	Compound
-0.2%	COc1ccccc1C(=O)Nc1c(C(=O)NC(C)(C)C)oc2ccccc12
-0.5%	COCCn1c(C)cc(O)c(C(c2ccccc2OC)N2CCCCC2)c1=O (stereo not drawn)
-46.5%	CCOc1ccc(-c2cc(NC(=O)Nc3cccc(C(C)=O)c3)c(C(=O)OC)s2)cc1
0.2%	O=C(Nc1ccc(Cl)cc1Cl)c1cc(S(=O)(=O)N2CCc3ccccc32)ccc1F
19.7%	CC1Cc2cc(S(=O)(=O)CCC(=O)Nc3ccc(OC(F)(F)F)cc3)ccc2N1C(=O)C1CC1 (stereo not drawn)
16.5%	CCc1ccccc1NC(=O)CSc1nc2c(oc3ccccc32)c(=O)n1-c1ccccc1
2.2%	Cc1ccc(N(CC(=O)N2CCN(c3ccc(Cl)cc3)CC2)S(=O)(=O)c2c(C)nn(C)c2C)cc1
-34.3%	Cc1cccc(C(=O)OCc2cc(=O)n3ccsc3n2)c1
-2.3%	CCN(CC)C(=O)c1sc2c(c1C)c(=O)n(-c1ccc(Cl)c(Cl)c1)c(=O)n2Cc1cc(=O)n2c(C)cccc2n1
3.0%	COCCNC(=O)CCc1c(C)n(C)c2cc(-c3cc(OC)c(OC)c(OC)c3)nn2c1=O
5.3%	Cc1ccc(OCC(=O)NCC2(N(C)C)CCCCC2)cc1C
-18.7%	Cc1ccc(NC(=O)N2CCC(CN3CCCCCC3)CC2)c(Cl)c1
6.6%	CCOC(=O)c1c(C)oc2nc(C)nc(NCC3CCN(Cc4cc(C)ccc4C)CC3)c12
-1.3%	COc1ccc(CCNC(=O)C(=O)NCC(c2ccco2)S(=O)(=O)c2ccccc2)cc1OC (stereo not drawn)
-5.8%	CCOC(=O)CC(NC(=O)CCc1c(C)nc2c(c(C)nn2-c2ccc(C)c(C)c2)c1C)c1ccc(C)cc1 (stereo not drawn)
-3.3%	CCc1ccc(-n2c(=O)c3cccnc3n2CC(=O)Nc2cc(OC)ccc2OC)cc1
-1.4%	Cc1c(CC(=O)NCCc2ccccc2)c(=O)oc2c(C)c3occ(C(C)(C)C)c3cc12
-31.9%	Cc1ccc(-n2ncc3c(NC4CCCCC4)ncnc32)cc1C
-5.5%	Cc1ccc(C)c(N2CCN(C(=O)Cn3c(=O)c4cccn4c4ccc(F)cc43)CC2)c1
15.8%	Cn1cc(S(=O)(=O)N2CCCCCC2)cc1C(=O)N1CCN(c2cccc(Cl)c2)CC1
-1.7%	Cc1cc(S(=O)(=O)N2CCCC(N(C)CCc3ccccn3)C2)c(C)s1 (stereo not drawn)
2.8%	Cc1ccc2nc(N(Cc3cccnc3)C(=O)CCc3ccccc3)sc2c1
-0.5%	CC(=O)Nc1ccc(-n2c(CCC(=O)O)ccc2-c2ccc(C)cc2)cc1
1.4%	Cc1ccc(NC(=O)C2CCN(S(=O)(=O)c3cccc4nsnc34)CC2)cc1
-6.3%	O=C(Nc1cccc(F)c1)c1oc2ccccc2c1NC(=O)C12CC3CC(CC(C3)C1)C2
0.7%	CCOC(=O)C1CCN(S(=O)(=O)c2cc(-c3cc(C)no3)ccc2OC)CC1
5.9%	CCn1ccc2cc(S(=O)(=O)N3CCC(C(=O)NCc4ccc(F)cc4)CC3)ccc21
-3.8%	CCS(=O)(=O)N1CCC2(CC1)OC(=O)C(C)=C2C(=O)NCc1ccc(OC)c(OC)c1
3.4%	CCOC(=O)c1[nH]c(C)c(CCC(=O)Nc2cccc(SC)c2)c1C
?	O=C(CSCc1ccc(F)cc1)N1CCc2c([nH]c3ccccc23)C1c1ccc(F)cc1 (stereo not drawn)
-4.5%	COc1ccc(-c2c3c(=O)n(C)c(=O)n(C)c3c3c(-c4ccccc4)nc4ccccc4n23)cc1
1.2%	Cc1ccc(N2CCN(S(=O)(=O)c3ccc4[nH]c5c(c4c3)CCCCC5)CC2)c(C)c1
24.6%	CCC(C)(C)NC(=O)Cn1c(=O)ccc2cc(S(=O)(=O)N3CCC(C)CC3)ccc21
-0.5%	CCCC(=O)Nc1cc(C(=O)NCc2ccccc2)ccc1S(=O)(=O)c1ccc(Cl)cc1
-47.3%	CCNC(=O)c1ccc2nc(Cc3ccccc3)oc2c1
-6.1%	COc1ccc(CCNCc2ccc3c(c2)n(C)c(=O)n3C)cc1OC
10.6%	CCOc1ccc(NC(=O)CSc2ncc3c(n2)-c2ccc(Cl)cc2N(Cc2ccccc2)S3(=O)=O)cc1
-3.0%	c1ccc(-c2cn(-c3ccccc3)c3ncnc(N4CCN(c5ccccc5)CC4)c23)cc1
8.6%	CC(=O)Nc1cc(C(=O)NCc2ccc(F)cc2)ccc1Sc1ccc(C)cc1
0.1%	Cc1cccc(C)c1-n1ncc(C(=O)NC2CCCC2)c1C1CCN(C(=O)OC(C)(C)C)CC1

Fetched by structure from the entries so far:
miR-21 reporter	Compound
-4.5%	COc1ccc(-c2c3c(=O)n(C)c(=O)n(C)c3c3c(-c4ccccc4)nc4ccccc4n23)cc1
5.9%	CCn1ccc2cc(S(=O)(=O)N3CCC(C(=O)NCc4ccc(F)cc4)CC3)ccc21

3 compounds already listed, arranged by SMILES length, highest first.
miR-21 reporter	Compound
1.2%	Cc1ccc(N2CCN(S(=O)(=O)c3ccc4[nH]c5c(c4c3)CCCCC5)CC2)c(C)c1
24.6%	CCC(C)(C)NC(=O)Cn1c(=O)ccc2cc(S(=O)(=O)N3CCC(C)CC3)ccc21
-0.5%	CC(=O)Nc1ccc(-n2c(CCC(=O)O)ccc2-c2ccc(C)cc2)cc1

(more compounds)
miR-21 reporter	Compound
2.8%	CCn1c(C(=O)Nc2c(C)cccc2C)cc2sc(Cl)cc21
-0.1%	CCOC(=O)c1c(SCC(=O)Nc2nc3ccccc3s2)nc(=O)[nH]c1C
-0.6%	Cc1ccc(NC(=O)C(CC(C)C)N2Cc3ccccc3C2=O)cc1F (stereo not drawn)
27.9%	COc1ccc(CCNC(=O)c2ccc3c(c2)nc2n3CCC(C)C2)cc1OC (stereo not drawn)
?	OCc1cnc(SCc2cccc(F)c2)n1Cc1ccc(F)cc1
-13.4%	Cc1nc2ccn(Cc3cccnc3)c(=O)c2cc1C(=O)NCc1ccccc1
-11.1%	COc1ccc(CCNC(=O)CN2C(=O)COc3ccc(C)cc32)cc1OC
1.0%	CC(C)(C)C(=O)CSc1nc2ccsc2c(=O)n1Cc1ccccc1Cl
-24.6%	Cc1ccccc1OCc1cc(=O)n2c(-c3ccccc3)csc2n1
19.3%	Cc1ccc(NC(=O)C(Cc2ccccc2)NS(=O)(=O)c2ccc3c(c2)c(=O)n(C)c(=O)n3C)cc1 (stereo not drawn)
0.8%	Cc1ccc(CNC(=O)c2ccc3c(c2)NC(=O)C(CS(=O)(=O)Cc2cccc(F)c2)N3)cc1 (stereo not drawn)
-8.1%	CC(C)Cc1nn2c(=O)cc(COC(=O)c3ccccc3NC(=O)c3ccccc3)nc2s1
-0.7%	COc1ccc(-n2ccnc(NCc3cccs3)c2=O)cc1OC
0.7%	N#Cc1ccccc1NC(=O)CSc1nnc(N)s1
9.2%	Cc1ccsc1CN(C(=O)c1ccc(OCC(C)C)cc1)C1CCS(=O)(=O)C1 (stereo not drawn)
-21.0%	Cc1ccc(NC(=O)c2cc3ccccn3n2)cc1F
-3.3%	Cc1cc(C)c(Cn2c(=O)n(CCC(=O)NCc3ccc4c(c3)OCO4)c(=O)c3ccccc32)c(C)c1
?	O=C(CSc1c2c(nc3ccc(Cl)cc13)CCCC2)N1CCCCC1
-4.8%	Cc1ccc(CNC(=O)c2ccc3c(c2)NC(=O)C(CS(=O)(=O)Cc2cccc(C)c2)N3)cc1 (stereo not drawn)
-2.1%	COc1ccc(NC(=O)c2cc3cc(C)ccc3n2C)cc1
-1.8%	Cc1cccc(NC(=O)COc2ccc3oc4c(c3c2)CCCC4)c1
-15.7%	CCc1nn2c(-c3ccco3)ccnc2c1-c1ccc(F)cc1
-11.7%	COc1ccccc1CNc1nc2ccc(Cl)cc2n2cnnc12
?	COc1ccc(N(C(=O)c2ccc(Cl)cc2)S(=O)(=O)c2ccc(C)cc2)cc1
1.4%	CCCC(=O)NCC(c1ccc2c(c1)OCO2)N1CCN(c2ccc(F)cc2)CC1 (stereo not drawn)
-7.9%	Cc1ccc(CNC(=O)CN2N=C(c3ccccc3)CCC2=O)cc1
-1.3%	Cc1ccc(C)c(NC(=O)c2ccc3c(c2)CCN3S(=O)(=O)c2ccccc2)c1
-0.4%	COCCn1ccc2c(OCC(=O)NCc3ccc(F)cc3)cccc2c1=O
-0.3%	Cc1ccc(OCc2nnc(SCC(=O)Nc3ccccc3C(C)C)o2)cc1
-2.4%	COc1ccc(-c2c(C)nn3c(N4CCN(c5ccccc5)CC4)cc(C)nc23)cc1OC
0.2%	CC(C)Cn1cc(NC(=O)N2CCN(c3cccc(C(F)(F)F)c3)CC2)c2ccccc2c1=O
1.1%	CCOc1ccc(CNC(=O)C2CCN(S(=O)(=O)c3c(C)noc3/C=C/c3ccc(C)cc3)CC2)cc1OC
-1.1%	CCOc1ccc(C2CC(=O)Nc3nc(SCc4ccccc4C)[nH]c(=O)c32)cc1OC (stereo not drawn)
-9.3%	CCOC(=O)c1cccc(NC(=O)c2ncoc2-c2ccco2)c1
-33.3%	CC1CCN(c2nc3ccc(C(=O)NCc4ccc(Cl)cc4)cc3s2)CC1
-6.1%	COc1ccc(NC(=O)Cn2c(=O)n(-c3ccccc3)c(=O)c3ccc(C(=O)NCc4ccc5c(c4)OCO5)cc32)cc1
23.9%	Cc1ccc(NC(=O)C2CCN(c3nc4ccccc4nc3C(F)(F)F)CC2)cc1F
-44.8%	COc1ccc2oc(-c3ccc(C)c(NC(=O)Cc4ccc(Cl)cc4)c3)nc2c1
27.6%	CCc1nc2ccccc2n1CCCCOc1ccc(Cl)cc1
-6.5%	COc1ccc(CCCc2nnc(SCC(=O)Nc3ccc(F)cc3)o2)cc1C
-15.1%	COc1ccc(/C=C/c2nc(C#N)c(N3CCCCCC3)o2)cc1OC
-0.2%	COc1ccc(S(=O)(=O)N(CCc2ccccc2)CC(=O)NCc2ccccc2)cc1
?	CC(C)(C)c1ccc(C(=O)Nc2ccc3c(c2)CCCN3C(=O)c2cccs2)cc1
0.6%	O=C(CSc1nc(=O)[nH]c2c1CCC2)NCc1ccccc1
2.2%	Cc1ccc(C)n1-c1c(C(=O)NCCC(C)C)sc2ncccc12
-0.2%	CCOC(=O)COc1ccc(F)cc1C(=O)c1ccn2nc(-c3ccc(Cl)cc3)cc2n1
-1.4%	COc1ccccc1CNC(=O)c1c2c(nc3ccccc13)C(=O)N(C1CCCCC1)C2
27.7%	CCn1c(C(=O)N2CCC(C(=O)N3CCN(c4ccc(OC)cc4)CC3)CC2)cc2sccc21
-0.5%	O=C(CN1CCSc2ccccc21)N1CCN(c2ccccc2)CC1
18.8%	Cc1ccc(S(=O)(=O)N2CCCc3cc(NC(=O)c4ccc(C(C)(C)C)cc4)ccc32)cc1
-10.7%	COCCCNc1nc2c(-c3ccccc3)nnn2c2ccccc12
7.4%	COc1cc(OC)cc(N2C(=O)N(Cc3ccc(C(C)(C)C)cc3)c3ccccc3S2(=O)=O)c1
-10.9%	CCOc1ccc(CNC(=O)c2ccc(NC(=O)N3CCSc4ncccc43)cc2)cc1
-17.9%	CCc1cccc(NC(=O)Cn2nc(CC)n3c(cc4cc(C)ccc43)c2=O)c1
-19.4%	NS(=O)(=O)c1ccc(CCNC(=O)c2ccc3nc(CCc4ccccc4)oc3c2)cc1
-15.4%	CCCc1cc(=O)oc2cc(C)c3c(-c4ccccc4)coc3c12
-13.5%	Fc1cccc(-c2nnn3c2nc(NC2CCCCC2)c2ccccc23)c1
?	Cc1cc(=O)n(C(C)C(=O)N2CCCc3ccccc32)c2c1c(C)nn2-c1ccccc1 (stereo not drawn)
-17.8%	CCc1ccc(NC(=O)CSc2nc(-c3cccc(OC)c3)nc3c2Cc2c(CO)cnc(C)c2O3)cc1
?	CCOc1ccccc1Nc1ccc2cc(S(=O)(=O)N3CCCCC3)ccc2n1

Individual results from the results shown.
CCc1cccc(NC(=O)Cn2nc(CC)n3c(cc4cc(C)ccc43)c2=O)c1 | miR-21 reporter: -17.9%
Cc1c(CC(=O)NCCc2ccccc2)c(=O)oc2c(C)c3occ(C(C)(C)C)c3cc12 | miR-21 reporter: -1.4%

Further results:
miR-21 reporter	Compound
-6.1%	Cc1ccc(CSc2nc(=O)c3c(C)cc(C)nc3n2C2CC2)cc1
-7.1%	CCOc1ccc2nc(Cl)c(C3CC(c4ccc(C)cc4)=NN3C(=O)CCC(=O)O)cc2c1 (stereo not drawn)
5.9%	CCc1ccc(S(=O)(=O)c2cn(Cc3ccccc3F)c3cc(OC)c(OC)cc3c2=O)cc1
1.8%	CCOC(=O)c1c(C)n(-c2ccccc2)c2ccc(OC(=O)c3cccc(Cl)c3)cc12
-2.5%	COc1ccc(OCC(=O)N(Cc2cccs2)c2ccc(OC)cc2)cc1
-5.8%	NC(=O)c1nn2c(C(F)(F)F)cc(-c3ccc(Br)cc3)nc2c1Cl
-0.2%[7.66 µM]	O=C1OC2(CCCCC2)CC2=C1C1O[C@](c3ccsc3)(Cc3c1ccc1ccccc31)O2
-40.9%	O=C(CSc1nc2c(oc3ccccc32)c(=O)[nH]1)Nc1cccc(Cl)c1
-20.9%	CCOc1ccc(C(=O)Nc2ccc(S(=O)(=O)Nc3nc(C)cc(C)n3)cc2)cc1OC
-2.5%	COc1ccc(N2CCN(C(=O)c3cnc(SC)nc3C)CC2)cc1
-0.6%	CSc1cccc(NC(=O)Cn2ncn3c(cc4ccccc43)c2=O)c1

High-throughput results as filed in PubChem.
